Calb FLC = affects C. albicans growth with fluconazole. growth inhibition, % (test concentration not listed). C. albicans CaCi-2 (fluconazole-resistant clinical isolate) + fluconazole, Alamar Blue growth, 48 h. hit rate 0.57% among 300,000;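 active = most replicates above 75%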;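 also: all wells also contain fluconazole at 8 µg/ml as a sub-toxic cotreatment; 0% = median of DMSO wells and 100% = median of geldanamycin control wells; wells of about 8 µL received 7.5 nL stock; the first replicate is given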
LANA-H2B inh = blocks KSHV LANA binding to histone H2A/H2B; cell-free LANA-H2A/H2B peptide, fluorescence polarization; inhibition, % (concentration not given with the values); hit rate 0.6% among 320,000; in the data active = inhibition mostly above about 10%, no sharp cut-off; inactive = mostly below about 6.7%;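 also: stock transfer was 7.5 nL into about 10 µL; 0% = median of vehicle wells and 100% = median of positive control wells; one replicate is shown; the record names a cut of 25% in any replicate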
T cruzi inh = T. cruzi replication inhibition; T. cruzi beta-gal in NIH3T3, luminescence, 90 h; inhibition, % (test concentration not listed); hit rate 1.4% among 300,000; AID 1885;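 active = mean inhibition across valid replicates above about 55%, limit read from the data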;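 also: signal also drops with host cell toxicity which is not excluded here; 0% = plate median of DMSO wells and 100% = zero luminescence signal; higher percent means less beta-gal luminescence so fewer parasites; stock transfer was 50 nL into about 50 µL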
Beta2AR agonist = human beta-2 adrenergic receptor agonism by FAP. response, % (concentration not given with the values). AID 504454. Am2.2-beta2AR cells, FAP receptor internalization, flow cytometry; reference of the scale not given here. hit rate 0.43% among 340,000. P07550;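 active = response above a set limit, near 3 SD of response in nonfluorescent compounds, cut at about 42% in these data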;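 also: stock transfer was 100 nL into about 11 µL; a reference agonist was the positive control; negative values mostly stem from fluorescent compounds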
Target sequence (P07550 whole entry, looked up): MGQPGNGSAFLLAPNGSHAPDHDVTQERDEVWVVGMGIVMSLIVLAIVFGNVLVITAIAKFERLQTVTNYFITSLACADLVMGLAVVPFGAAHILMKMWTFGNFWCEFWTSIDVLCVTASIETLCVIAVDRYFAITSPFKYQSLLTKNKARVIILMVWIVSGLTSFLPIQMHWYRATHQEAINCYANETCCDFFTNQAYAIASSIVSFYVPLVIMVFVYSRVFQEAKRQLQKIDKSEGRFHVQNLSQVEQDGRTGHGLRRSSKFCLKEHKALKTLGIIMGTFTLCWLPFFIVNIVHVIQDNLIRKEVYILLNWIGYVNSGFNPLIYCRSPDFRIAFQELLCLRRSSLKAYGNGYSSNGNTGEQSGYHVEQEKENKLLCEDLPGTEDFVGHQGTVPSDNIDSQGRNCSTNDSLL
Ecoli rRNA inh = selective bacterial rRNA inhibition in E. coli. GFP signal change (wild-type ribosome), % (concentration not given with the values). E. coli WT GFP vs humanized-ribosome RFP mutants, fluorescence, 24 h; stronger effect = lower value; DMSO median 0, no signal -100. hit rate 1.6% among 350,000. AID 720706;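 active = significant combined selectivity score with lowered wild-type GFP, culture density cut under 30%, mutant RFP and density less affected; inactive = any of these conditions unmet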; also: one replicate is shown; some compounds called inactive have numbers as strong as hits
A1 inh = inhibitors of the anti-apoptotic protein A1, read as caspase activation; MEF A1-2A-BIM cells, Caspase-Glo 3/7 luminescence, 3 h; percent of clofoctol response, vehicle zero; hit rate 0.066% among 330,000; caspase activation, % (no concentration beside the values);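 active = over half of replicate activation scores above 10%, or exactly half above 10 with the replicate mean above 10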;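 also: wells of about 30 µL received 50 nL stock; many hits fall short of the cut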
ALR inh = human ALR oxidase inhibition via reduced H2O2; P55789; purified ALR, DTT oxidation, H2O2 HRP-luminol luminescence; inhibition, % (no concentration beside the values); hit rate 3.8% among 290,000;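 active = mean and each replicate at 75% or more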;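 also: stock transfer was 7.5 nL into about 7.5 µL; 0% = neutral wells and 100% = wells with inactivated enzyme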
Target sequence (P55789 whole entry, looked up): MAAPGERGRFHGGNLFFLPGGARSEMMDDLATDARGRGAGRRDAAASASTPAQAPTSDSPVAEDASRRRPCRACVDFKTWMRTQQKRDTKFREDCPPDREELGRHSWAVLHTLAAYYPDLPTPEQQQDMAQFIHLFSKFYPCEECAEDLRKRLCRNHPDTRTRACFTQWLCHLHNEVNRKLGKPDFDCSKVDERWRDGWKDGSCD
Beta cell apopt = blocks beta cell apoptosis; hit rate 0.8% among 300,000; INS-1E cytokine-induced death, ATP luminescence, 48 h; percent of positive-control rescue, neutral wells zero; protection from apoptosis, % (no concentration beside the values);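 active = all replicates at 75% or more, or half of them and the mean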;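 also: 0% = cytokine-treated negative control wells and 100% = positive control rescue; higher means more ATP so stronger rescue from cytokine killing; wells of about 40 µL received 100 nL stock; the first replicate is given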
Ecoli rRNA inh OD600 = recorded beside Ecoli rRNA inh, whose call it bears; OD600 change, %; measured here: OD600 growth;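 optical density of the mix in the first replicate; 0 = DMSO median and -100 = no signal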
Ecoli rRNA inh RFP = also measured in Ecoli rRNA inh; calls as there; RFP signal change, %; measured here: RFP humanized mutant strains;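 first replicate; 0 = DMSO median and -100 = no signal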
The depositor's hits bear a star; & = joins results of further samples. This is a subset (hit frequency here may not be typical).

`CN(CCc1ccccn1)C(=O)c1cccnc1Oc1ccccc1` gave Calb FLC 8, LANA-H2B inh 0.3, Beta2AR agonist -7, Ecoli rRNA inh 24, A1 inh 1.4, ALR inh 2, Beta cell apopt 0, Ecoli rRNA inh OD600 11 and Ecoli rRNA inh RFP 5.2.
`O=C(O)c1ccccc1C(=O)Nc1ccc(S(=O)(=O)Nc2nccs2)cc1` gave LANA-H2B inh -2.9, Beta2AR agonist -5, Ecoli rRNA inh 10, A1 inh 0.2, ALR inh 0, Ecoli rRNA inh OD600 17 and Ecoli rRNA inh RFP 1.4.
COc1ccccc1N(CC(=O)NCc1ccccc1)S(C)(=O)=O was read as Calb FLC 3, LANA-H2B inh -3.7, T cruzi inh 0, Beta2AR agonist 10, A1 inh 0.5, ALR inh -2 and Beta cell apopt -4.
O=C(Nc1nc2ccc(Oc3ccccc3)cc2s1)c1cc([N+](=O)[O-])ccc1N1CCOCC1 was read as Calb FLC 12, LANA-H2B inh 2.9, T cruzi inh 48, Beta2AR agonist 3, A1 inh 0.3 and Beta cell apopt 4.
For CC(=O)Oc1ccc(-c2ccc(C(=O)NCCc3ccc(S(N)(=O)=O)cc3)cc2)cc1 the results were Calb FLC -5, LANA-H2B inh 3.7, T cruzi inh -2, Beta2AR agonist 15, Ecoli rRNA inh 0, A1 inh -0.3, ALR inh -2, Beta cell apopt 2, Ecoli rRNA inh OD600 5 and Ecoli rRNA inh RFP -0.7.
COc1ccc(C(=O)N2CCCc3ccccc32)cc1Br was read as Calb FLC -10, LANA-H2B inh -1.8, T cruzi inh 2, Beta2AR agonist -6, Ecoli rRNA inh -25, A1 inh -1.3, ALR inh -2, Beta cell apopt -5, Ecoli rRNA inh OD600 -50 and Ecoli rRNA inh RFP 0.7.
For Cc1ccc(NC(=O)CSc2nc3c(c(=O)[nH]2)CCCC3)cc1C the results were Calb FLC -4, LANA-H2B inh -3.0, T cruzi inh 5, Beta2AR agonist 8, Ecoli rRNA inh 13, A1 inh -0.4, ALR inh -6, Beta cell apopt 1, Ecoli rRNA inh OD600 -1 and Ecoli rRNA inh RFP -0.9.
`COc1cccc2c1OC[C@@H](CO)[C@H]2N(C)C(=O)Nc1ccc(Cl)cc1Cl` gave Calb FLC -11, LANA-H2B inh 2.0, T cruzi inh -48, Beta2AR agonist 0, A1 inh 0.0, ALR inh -2 and Beta cell apopt 21.
For N=c1oc2ccc(Cl)cc2cc1C(=O)Nc1ccc(F)cc1 the results were Calb FLC -9, LANA-H2B inh 3.7, T cruzi inh -6, Beta2AR agonist 4, Ecoli rRNA inh -19, A1 inh -0.6, ALR inh -8, Beta cell apopt -1, Ecoli rRNA inh OD600 -15 and Ecoli rRNA inh RFP 6.3.
Screening C[C@H](NC(=O)c1ccc(C(C)(C)C)cc1)C(=O)N1CCC2(CC1)NCCc1[nH]cnc12 returned Calb FLC -4, LANA-H2B inh -2.2, T cruzi inh 15, Beta2AR agonist 2, Ecoli rRNA inh 6, A1 inh 0.9, ALR inh -4, Beta cell apopt -7, Ecoli rRNA inh OD600 7 and Ecoli rRNA inh RFP -0.3.
For O=C1NN=C(CSc2n[nH]c(=S)s2)CS1 the results were Calb FLC 1, LANA-H2B inh 2.4, T cruzi inh -11, Beta2AR agonist 4, Ecoli rRNA inh 15, A1 inh 0.9, ALR inh 56, Beta cell apopt 4, Ecoli rRNA inh OD600 8 and Ecoli rRNA inh RFP 1.3.
Screening COCCn1c(SCC(=O)N2CC(=O)Nc3ccccc32)nc2ccccc2c1=O returned Calb FLC 6, LANA-H2B inh 6.7, T cruzi inh -9, Beta2AR agonist -2, Ecoli rRNA inh -3, A1 inh -0.2, ALR inh -14, Beta cell apopt -8, Ecoli rRNA inh OD600 -5 and Ecoli rRNA inh RFP 1.5.
`CCOC(=O)CN1NC2(CCCCC2)NC1=S` gave Calb FLC -9, LANA-H2B inh -0.6, T cruzi inh 1, Beta2AR agonist 3, A1 inh -0.5 and Beta cell apopt 3.
For Cn1nccc1NC(=O)Nc1cccc(Cl)c1Cl the results were Calb FLC -4, LANA-H2B inh -3.1, T cruzi inh -28, Beta2AR agonist 3, A1 inh 0.8 and ALR inh -3.
For Cn1c2c(c(=O)n(C)c1=O)C(c1ccc(O)cc1)Nc1ccccc1O2 (stereo unspecified) the results were Calb FLC -9, LANA-H2B inh -0.7, T cruzi inh 3, Beta2AR agonist 6, A1 inh 0.3, ALR inh 13 and Beta cell apopt -10.
For N=C1CCCN1CC(=O)c1ccc(Cl)cc1 the results were Calb FLC -6, LANA-H2B inh 4.6, T cruzi inh -1, Beta2AR agonist 1, A1 inh 0.1 and ALR inh 4.
Screening CC(C)NC(=O)c1onc(CSc2ccc(Cl)cc2)c1C(=O)NC(C)C returned Calb FLC 5, LANA-H2B inh 2.0, T cruzi inh 13, Beta2AR agonist -5, A1 inh -0.9, ALR inh -1 and Beta cell apopt -2.
COc1cc(C)c(C)cc1S(=O)(=O)N1CCN(Cc2ccccc2)CC1 was read as Calb FLC -7, LANA-H2B inh 0.7, T cruzi inh 19, Beta2AR agonist -4, A1 inh 0.1, ALR inh -4 and Beta cell apopt -7.
CCOC(=O)C1=C(C)NC(SCC(N)=O)=C(C#N)C1c1ccncc1 (stereo unspecified) was read as Calb FLC -6, LANA-H2B inh -1.0, T cruzi inh 4, Beta2AR agonist -8&-6, Ecoli rRNA inh -5, A1 inh 0.7, ALR inh -6, Beta cell apopt 1, Ecoli rRNA inh OD600 -10 and Ecoli rRNA inh RFP -0.3.
For COc1ccc(/C=N/OCc2ccc(Br)cc2)c(OC)c1 the results were Calb FLC -3, LANA-H2B inh -5.9, T cruzi inh 7, Beta2AR agonist 11, Ecoli rRNA inh 0, A1 inh 0.6, ALR inh -2, Beta cell apopt -1, Ecoli rRNA inh OD600 -3 and Ecoli rRNA inh RFP 0.5.
For COc1ccc(CCN(C)C(=S)NC(=O)c2ccc(F)cc2Cl)cc1OC the results were Calb FLC -15, LANA-H2B inh 0.5, T cruzi inh -10, Beta2AR agonist -3, Ecoli rRNA inh -26, A1 inh 0.2, Beta cell apopt 3, Ecoli rRNA inh OD600 -30 and Ecoli rRNA inh RFP -5.5.
`Cc1cccc(NC(=O)CSc2nc(=O)n(CCCN3CCOCC3)c3c2CCCC3)c1` gave Calb FLC 2, LANA-H2B inh 4.0, T cruzi inh 11, Beta2AR agonist -8, Ecoli rRNA inh -1, A1 inh 0.7, ALR inh 98*, Ecoli rRNA inh OD600 -3 and Ecoli rRNA inh RFP -0.3.
O=C(CSc1nc2ccccc2[nH]1)NC(=O)NCc1ccco1 was read as Calb FLC 6, LANA-H2B inh 1.0, T cruzi inh -2, Beta2AR agonist -9, A1 inh -0.8, ALR inh -13 and Beta cell apopt -3.
Cn1c(CSc2ncccn2)nnc1SCC(=O)N1CCCC1 was read as Calb FLC 26, LANA-H2B inh -0.2, T cruzi inh -15, Beta2AR agonist 7, Ecoli rRNA inh 14, A1 inh -0.2, Beta cell apopt -1, Ecoli rRNA inh OD600 -1 and Ecoli rRNA inh RFP -1.9.
Cc1ccc(-n2c(Cn3cnc4ccccc43)nnc2SCC(=O)O)cc1 was read as Calb FLC -6, LANA-H2B inh 0.0, T cruzi inh -13, Beta2AR agonist -3, A1 inh 1.0 and Beta cell apopt 0.
Cc1ccccc1-n1c(SCC(=O)N/N=C/c2c(C)nn(-c3ccccc3)c2C)nc2ccccc2c1=O was read as Calb FLC 2, LANA-H2B inh -1.3, T cruzi inh 56*, Beta2AR agonist 9, Ecoli rRNA inh -1, A1 inh -0.1, ALR inh -3, Beta cell apopt 18, Ecoli rRNA inh OD600 -13 and Ecoli rRNA inh RFP -0.3.
For CCc1ccc(C(=O)Nc2ccc(C)c(NS(C)(=O)=O)c2)cc1 the results were Calb FLC 3, LANA-H2B inh 4.3, T cruzi inh -17, Beta2AR agonist -4, Ecoli rRNA inh -15, A1 inh 0.3, ALR inh -3, Beta cell apopt 0, Ecoli rRNA inh OD600 -8 and Ecoli rRNA inh RFP -1.2.
Screening CCOC(=O)N1CCN(C(=O)COC(=O)c2oc3ccc(OC)cc3c2C)CC1 returned Calb FLC -4, LANA-H2B inh 3.7, T cruzi inh -8, Beta2AR agonist 14, Ecoli rRNA inh -11, A1 inh -0.8, ALR inh -3, Beta cell apopt -3, Ecoli rRNA inh OD600 -8 and Ecoli rRNA inh RFP 2.5.
For O=NN(CCCl)C(=O)NCCCl the results were LANA-H2B inh 3.0, Beta2AR agonist 2, Ecoli rRNA inh 15, A1 inh 1.4, ALR inh 4, Beta cell apopt -5, Ecoli rRNA inh OD600 16 and Ecoli rRNA inh RFP 1.8.
CCc1ccc(C(=O)Nc2ccc3nc(C)ccc3c2)cc1 was read as Calb FLC -5, LANA-H2B inh -7.5, T cruzi inh -8, Beta2AR agonist 9, Ecoli rRNA inh 6, A1 inh -1.4, Ecoli rRNA inh OD600 3 and Ecoli rRNA inh RFP 0.0.
CCOc1nc(C)cc(C)c1S(=O)(=O)c1cccc(C)c1 was read as Calb FLC 15, LANA-H2B inh -1.5, T cruzi inh 13, A1 inh -0.3, ALR inh -21 and Beta cell apopt 1.
O=c1cc(-c2cccc([N+](=O)[O-])c2)[nH][nH]1 was read as Calb FLC 0, LANA-H2B inh -3.5, T cruzi inh -18, Beta2AR agonist 2, A1 inh 0.6, ALR inh 82* and Beta cell apopt -3.
`Cc1ccc(C)n1NC(=O)c1cccs1` gave Calb FLC -1, LANA-H2B inh 1.9, T cruzi inh -4, Beta2AR agonist 16, A1 inh -0.7, ALR inh -11 and Beta cell apopt 2.
Screening COc1cc(CNn2nnnc2N)ccc1OCc1c(Cl)cccc1Cl returned Calb FLC -1, LANA-H2B inh -2.5, T cruzi inh 9, Beta2AR agonist 4, A1 inh -0.9, ALR inh 1 and Beta cell apopt -10.
Screening Cc1noc(C)c1C(=O)Nc1cccc(S(=O)(=O)N2CCOCC2)c1 returned LANA-H2B inh 5.9, Beta2AR agonist -1, Ecoli rRNA inh 9, A1 inh -0.3, ALR inh 1, Beta cell apopt -5, Ecoli rRNA inh OD600 14 and Ecoli rRNA inh RFP 0.4.
CCCOc1ccc(N2C(=O)CC(N3CCOCC3)C2=O)cc1 (stereo unspecified) was read as Calb FLC -3, LANA-H2B inh 1.2, T cruzi inh -10, Beta2AR agonist -6, A1 inh -0.3, ALR inh -3 and Beta cell apopt -6.
NNc1nc2c(Cl)c(Cl)ccc2s1 was read as Calb FLC -2, T cruzi inh 25, Beta2AR agonist 2, A1 inh 0.1 and Beta cell apopt 8.
For O=C(NNc1ccc([N+](=O)[O-])cc1[N+](=O)[O-])c1ccco1 the results were Calb FLC -2, LANA-H2B inh -0.2, T cruzi inh 17, Beta2AR agonist 4, A1 inh 0.5, ALR inh 98* and Beta cell apopt -1.
Cc1cc(O)c(Sc2ccc(Cl)cc2)c(=O)[nH]1 was read as Calb FLC -2, LANA-H2B inh 0.8, T cruzi inh -8, Beta2AR agonist 2, Ecoli rRNA inh 3, A1 inh -0.2, ALR inh -4, Beta cell apopt -14, Ecoli rRNA inh OD600 -17 and Ecoli rRNA inh RFP -0.7.

Screening results from PubChem BioAssay.
